Assay outcomes as filed in PubChem.
26S disassembly: blocks ATP-dependent breakdown of the yeast 26S proteasome; anti-FLAG beads, GFP-proteasome disassembly, flow cytometry; inhibition of disassembly, % (concentration not given with the values); hit rate 0.2% among 24,000; AID 751;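 active means above 40%; inconclusive means likely self-fluorescent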;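 further: plate controls were ATP control with full disassembly for no effect and ATP-gamma-S intact proteasomes for full effect; higher percent means more bead fluorescence retained so stronger block of disassembly; stock transfer was 100 nL into about 10 µL; wells with too few beads may also be inconclusive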
VCAM-1 up: enhancers of VCAM-1 display on endothelial cells, cell-based, plate reader, pooled HUVEC, TNFa stimulus (AID 455) | HUVEC TNFa-induced VCAM-1 immunofluorescence, plate reader; numbers were filed only for top-ranked candidate wells | augmentation, % at 5 µM | hit rate 0.2% among 10,000;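 active means a compound raising TNF-alpha-driven VCAM-1 surface staining, with its hit status upheld on visual or statistical review; inactive means the rest, including hits rejected on review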;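 further: 0% = TNFa with vehicle and 100% = strongest image-checked hit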
The depositor's hits bear a star; i = inactive; u = inconclusive; x = no result given. These rows are one share of the data; count on the stated rates, not on these rows.

Every second line gives: 26S disassembly, VCAM-1 up
CCC(C)NC(=O)C1c2cc(OC)c(OC)cc2C(=O)N(C)C1c1ccc(OC)cc1 (configuration not stated)
  -0.4, i
O=C(CCc1nc2ccccc2[nH]1)Nc1ccc2c(c1)OCO2
  0.1, i
Cc1nnc(NC(=O)CSc2nnc(Cc3cccn3C)n2CCc2ccccc2)s1
  0.9, x
CCOC(=O)C1CCN(C(=O)CNS(=O)(=O)c2ccc(Br)s2)CC1
  -0.1, x
O=C(Nc1ccc(-n2nncc2-c2ccco2)cc1)c1cccc(F)c1
  1.9, x
CC(=O)c1cccc(NC(=O)Cn2cc3c(n2)CCCC3)c1
  2.3, x
O=C(O)CCC(=O)N1CCc2cc(S(=O)(=O)N3CC=C(c4ccccc4)CC3)ccc21
  8.0, x
CCCN1C(=O)c2cc(C(=O)NC3CCCCCC3)ccc2C1O (configuration not stated)
  1.1, x
Cn1c2ccccc2c(=O)n2c(=O)c3ccccc3cc12
  1.4, x
Cc1nc2c(-c3ccc(F)cc3)c(C)nn2c(C)c1CCC(=O)NC(C)CCc1ccco1 (configuration not stated)
  -0.8, i
CCOC(=O)CN1CC23C=CC(O2)C(C(=O)NCc2ccc(C)cc2)C3C1=O (configuration not stated)
  0.9, x
CCOC(=O)CSc1nnc(Cc2cc(=O)[nH]c(=O)[nH]2)n1-c1cccc(OC)c1
  -0.7, x
CN(CC(=O)N1CCc2ccccc21)S(=O)(=O)c1cccs1
  7.3, x
Cc1cc(NC(=O)c2cn(C3CCCCC3)c(=O)c3c2c2ccccc2n3C)no1
  2.4, x
O=C(NCc1cccs1)C(Cc1ccccc1)n1cccc1 (configuration not stated)
  0.5, i

Exported bar-delimited: part of the list above.
SMILES | 26S disassembly | VCAM-1 up
CC(=O)c1cccc(NC(=O)Cn2cc3c(n2)CCCC3)c1 | 2.3 | x
O=C(O)CCC(=O)N1CCc2cc(S(=O)(=O)N3CC=C(c4ccccc4)CC3)ccc21 | 8.0 | x
CCCN1C(=O)c2cc(C(=O)NC3CCCCCC3)ccc2C1O (configuration not stated) | 1.1 | x

Further compounds follow:
Every second line gives: 26S disassembly, VCAM-1 up
O=C(NCCCN1CCC(Cc2ccccc2)CC1)C1CCC(=O)N1C1CCCC1 (configuration not stated)
  2.3, x
Cc1cc(NS(=O)(=O)c2ccc(NC(=O)c3ccoc3C)cc2)nc(C)n1
  2.3, x
CC(O)c1c(OCc2ccccc2)ncnc1OCc1ccccc1 (configuration not stated)
  -1.2, i
Cn1c(Cn2c(=O)sc3ccccc32)nnc1SCC(=O)NCc1ccco1
  0.8, x
COc1ccc(CCNC(=O)c2ccc3nc(-c4ccco4)c(-c4ccco4)nc3c2)cc1OC
  1.2, x
CCN(CC)S(=O)(=O)c1ccc(Br)c(OC)c1
  -0.4, i
COc1cc(C(=O)N2CCN(c3cc(Cl)ccc3Cl)CC2)cc(OC)c1OC
  0.0, i
Cc1c(C(=O)NCCCN2CCOCC2)sc2nc(-c3ccc(F)cc3)cn12
  -0.1, x
CC1=Nn2c(nnc2-c2cc(-c3ccccc3)n[nH]2)SC1
  -0.3, i
CCN(CC)CCOC(=O)c1ccc(N=CC2=C(O)CC(C)(C)CC2=O)cc1
  -1.1, x
COc1ccc(Cl)cc1N1C(=O)C2CCCN2C1c1ccccc1F (configuration not stated)
  0.2, x
O=C(CN1C(=O)C2CC=C(Cl)CC2C1=O)Nc1ccc(C(=O)O)cc1 (configuration not stated)
  -0.9, i
COc1ccccc1-n1nnnc1SCc1cc2c(cc1Br)OCO2
  0.1, i
CCOC(=O)N1CCC(NC(=O)c2cc(C(=O)NCc3ccc(F)cc3)ccc2CO)CC1
  -0.8, x
O=C(COC(=O)c1cc(S(=O)(=O)N2CCOCC2)ccc1O)NCC1CCCO1 (configuration not stated)
  2.8, i

Reprinted from the part before: three entries, followed by the next part.
Every second line gives: 26S disassembly, VCAM-1 up
COc1ccccc1-n1nnnc1SCc1cc2c(cc1Br)OCO2
  0.1, i
CCOC(=O)N1CCC(NC(=O)c2cc(C(=O)NCc3ccc(F)cc3)ccc2CO)CC1
  -0.8, x
O=C(COC(=O)c1cc(S(=O)(=O)N2CCOCC2)ccc1O)NCC1CCCO1 (configuration not stated)
  2.8, i
Cc1cc(C(=O)O)ccc1-n1c(C)ccc1C
  -0.2, i
COc1cc2c(C(=O)NCc3ccc4c(c3)OCO4)cn(C)c(=O)c2cc1OC
  0.5, x
CCOc1ccc(S(=O)(=O)NCc2ccc(F)cc2)c2cccnc12
  -0.1, x
COc1ccccc1NC(=O)N1CCN(c2ccc3nncn3n2)CC1
  -0.8, x
O=C(c1cccn2c(=O)c3cc(Cl)ccc3nc12)N1CCOCC1
  0.3, i
CC1CCN(Cc2nc3c(c(=O)n(C)c(=O)n3C)n2Cc2cccc3ccccc23)CC1
  1.2, i
CS(=O)(=O)N(CC(=O)N1CCN(c2cccc(Cl)c2)CC1)C1CCCCC1
  3.2, i
C=CCN1C(=O)C2(/C(=C(\O)c3ccc4c(c3)OCCO4)C(=O)C(=O)N2CCCOC)c2ccccc21 (configuration not stated)
  -0.8, i
CCOC(=O)C1CCN(c2c(N(C)Cc3ccco3)c(=O)c2=O)CC1
  -0.5, i
CCOC(=O)N1CCC(NC(=O)CCS(=O)(=O)c2ccc3c(c2)CCN3C(C)=O)CC1
  -0.1, x
Cc1ccc(-c2cc(=O)[nH][nH]2)c(C)c1
  -1.2, x
O=C1c2ccccc2C(Nc2ccc3c(c2)OCCO3)N1c1ccc(Cl)cn1 (configuration not stated)
  -1.7, x
Cc1cc(NS(=O)(=O)c2ccccc2)n(-c2ccccc2)n1
  3.4, i
CS(=O)(=O)N1CCCC(C(=O)NCc2cccs2)C1 (configuration not stated)
  0.5, x
COc1ccccc1-n1cnc2cc(C(=O)NCc3ccco3)ccc21
  2.7, x
COc1cc(CO)cc(-c2cc(CO)cc(OC)c2OC)c1OC
  -3.0, i
COc1ccc(Nc2nnc(Cc3ccccc3)c(=O)[nH]2)c(OC)c1
  -1.0, x
c1nc(N2CCC3(CC2)OCCO3)c2[nH]cnc2n1
  u, x
CCOc1ccc(-c2nc(S(=O)(=O)c3ccccc3)c(NCc3cccnc3)o2)cc1
  -0.5, i
CCOC(=O)C1=C(C)Nc2nc(SCC(=O)OC)nn2C1c1cc(F)cc(F)c1 (configuration not stated)
  1.1, i
O=C(Nc1ccc(-c2nc3ccccc3[nH]2)cc1)c1ccco1
  -3.2, x
CCOc1ccc2ccccc2c1/C=N/n1cncn1
  -1.7, i
Cc1noc(C)c1COc1cccc(C(=O)Oc2ccc3c(c2)OCO3)c1
  -1.3, i
COc1cc2c(cc1OC)C(C(=O)NCC1COc3ccccc3O1)C(c1cccnc1)N(C)C2=O (configuration not stated)
  0.1, x
Cc1cc(C)n(Cc2ccccc2F)c(=O)c1C#N
  0.7, x
CCN(CC)S(=O)(=O)c1ccc2c(c1)c(=O)c(C(=O)N1CCOCC1)cn2C
  1.6, x
CCS(=O)(=O)N1CCCC(C(=O)NCCN(C)Cc2ccccc2)C1 (configuration not stated)
  -1.3, x
Nc1nnc(C(=O)c2ccccc2N)s1
  1.7, i
O=C(C1CCCCC1)N1CCN(S(=O)(=O)c2ccc(Br)cc2)CC1
  1.4, x
Cc1ccc(CCN2CC(C(=O)NCCN3CCCCCC3)CC2=O)cc1 (configuration not stated)
  0.8, x
O=S(=O)(Cc1ccccc1)N1CCCCCC1
  0.6, i
CN1C(=O)c2ccccc2C(C(=O)O)C1c1cn(C)c2ccccc12 (configuration not stated)
  -0.2, x
Cc1ccc(S(=O)(=O)N2CCN(C(=O)CSc3nc4ccccc4c(=O)[nH]3)CC2)c(C)c1
  6.1, i
CC(C)(C)OC(=O)N1CC=C2C(C#N)=C(N)C(C#N)(C#N)[C@H](c3cccnc3)[C@H]2C1
  0.4, i
CC1=C(C(=O)OC2CCCC2)C(c2ccc(C)o2)C2=C(CC(c3cccs3)CC2=O)N1 (configuration not stated)
  3.2, i
COc1cccc(-c2nnc(NC(C)=O)o2)c1
  0.6, i
CCOC(=O)N1CCC(N(CCOC)C(=O)Nc2ccc(Cl)cc2)CC1
  -0.7, x
O=C(NCCO)c1cc2ccccc2c(=O)s1
  -1.7, x
O=C(CN1CCN(C(=O)c2ccccc2)CC1)Nc1ncc(Br)cc1Br
  -2.3, i
O=C(OCn1nnc2ccccc2c1=O)c1cc2ccccc2o1
  -0.1, i
N#Cc1c(N)c(C(=O)c2ccccc2)n2c1CCCC2
  0.2, i
CSc1nc(-c2ccco2)nn1C(=O)c1ccc(C)cc1
  1.0, x
CCc1c(C)nc(N2CCN(Cc3ccccc3)CC2)[nH]c1=O
  0.2, i
CCC(C)NC(=O)C1(C)CCC(=O)N1CCc1ccc(OC)c(OC)c1 (configuration not stated)
  0.9, i
COC(=O)CSc1nnc(CNC(=O)c2cccs2)n1-c1cccc(C)c1
  -0.1, x
CCOC(=O)N1CCC(NC(=O)c2ccc(OC)c(CN3CC(=O)N4CCCC4C3=O)c2)CC1 (configuration not stated)
  0.9, i
CCc1ccc(NC(=O)CSc2nnc(Cc3cccn3C)n2-c2ccc(OC)cc2)cc1
  1.3, i
Cc1nc(C)c(C(=O)Nc2ccc(C)c(F)c2)o1
  0.2, i
CCOCCCNC(=O)c1ccc(CS(=O)(=O)Cc2ccc(C)cc2)o1
  0.3, x
CC(C)(C)C(=O)Oc1cc(N)n(S(=O)(=O)c2ccc(F)cc2)n1
  1.4, x
CC(=O)N1C(=O)N(C)C2C1N(C(C)=O)C(=O)N2C (configuration not stated)
  2.0, i
CCOC(=O)N1CCC(NC(=O)c2cc3ccccn3n2)CC1
  -1.0, x
O=C(CSc1nc2c(c(=O)n1-c1ccc(F)cc1)SCC2)NCC1CCCO1 (configuration not stated)
  4.3, i
CCOCCCNC(=O)C(NC(=O)c1ccccn1)c1ccc(C)cc1 (configuration not stated)
  -0.9, i
COc1ccc(NC(=O)Cn2nnc(-c3ccccc3N)n2)cc1OC
  -2.4, i
CCN(CC)CCOC(=O)C1(c2ccc(OC)c(OC)c2)CCCC1
  26.8, i
CCOC(=O)c1sc(=NC(=O)c2ccc(S(=O)(=O)N3CC(C)OC(C)C3)cc2)n(C)c1C (configuration not stated)
  0.3, x
COc1ccc(C2C(C(=O)Nc3cccc(C)n3)c3ccccc3C(=O)N2C)cc1OC (configuration not stated)
  0.5, x
Cc1ccc(S(=O)(=O)NCc2ccc(C(=O)NCCCN3CCN(C)CC3)cc2)cc1
  -0.4, x
O=S(=O)(Nc1ccn(-c2ccccc2)n1)c1ccc(Br)cc1
  0.6, i

Later entries
Every second line gives: 26S disassembly, VCAM-1 up
Cc1[nH]nc2c1C(c1ccc(F)cc1)C1=C(CC(C)(C)CC1=O)N2 (configuration not stated)
  0.4, i
CCCNC(=O)NC(C(=O)OC)C12CC3CC(CC(C3)C1)C2 (configuration not stated)
  0.3, i
Cc1nc(Sc2nnnn2-c2ccccc2)c(C#N)c(C)c1C
  -1.0, x
c1ccc(C(Cc2nc(-c3ccccn3)no2)c2ccccc2)cc1
  1.4, i
COc1ccc(N2C(=O)c3cccc4cccc(c34)C2=O)nn1
  2.9, i
O=C(CNC(=O)c1cccs1)NCCN1CCN(c2ccccc2F)CC1
  6.4, i
CCc1cccc(NS(=O)(=O)c2c(C)n[nH]c2C)c1
  1.2, i
O=C(NC1CCCCC1)C1CC(=O)N(c2ccc(Cl)cc2)C1 (configuration not stated)
  -1.2, x
Cc1c(C(=O)N2CCCc3ccccc32)oc2ccc(S(=O)(=O)N3CCOCC3)cc12
  1.4, x
Cc1ccc(-c2nc(CSCC(=O)N3CCN(C(=O)c4ccco4)CC3)c(C)o2)cc1
  8.4, x
O=C(O)c1ccc(Cl)c2c1C1C=CCC1C(c1ccccn1)N2 (configuration not stated)
  -0.2, x
CCOC(=O)C(NC(=O)CC)(Nc1ccc(S(=O)(=O)Nc2onc(C)c2C)cc1)C(F)(F)F (configuration not stated)
  -0.1, i
Cc1ccccc1-n1c(SCc2c(C)noc2C)nnc1-c1ccncc1
  -2.6, i
CC(C)Sc1ncnc2c1oc1ccccc12
  0.6, x
Cc1cc(N2CCOCC2)nc2ccc(NC(=O)CCC(=O)N3CCCCC3)cc12
  1.6, x
NC(=O)CSc1nnc(-c2cnccn2)n1-c1ccccc1
  1.1, i
Cc1ccc(C)n1-c1ccc(-n2cnnn2)cc1
  12.8, i
CCOC(=O)C1CCCN(Cc2nc(N)nc(Nc3ccccc3)n2)C1 (configuration not stated)
  0.5, i
COC(=O)c1ccccc1NC(=O)Cn1cc2c(n1)CCC(C)C2 (configuration not stated)
  1.9, x
COc1ccc(CN2C(=O)CCC2(C)C(=O)NC2CCCCCC2)cc1 (configuration not stated)
  -0.8, x
Cc1cc2c(nn1)CCC/C2=N\O
  1.4, i
COC(=O)c1ccccc1NC(=O)CN1CCC(n2nnc3cc(F)ccc32)CC1
  3.3, i
CC(NC(=O)c1ccc2c(c1)OCO2)C(c1cccs1)N1CCOCC1 (configuration not stated)
  0.9, i
O=C1CC(c2ccccc2)CC(O)=C1C=NCc1ccco1 (configuration not stated)
  1.5, x
Nc1nc2n(n1)C(c1cccc(Cl)c1)CC(c1ccc(F)cc1)N2 (configuration not stated)
  -0.6, i
Cc1cccc2c1CC(C)(C)N=C2C1=C(O)CCCC1=O
  0.8, x
CCOC(=O)c1[nH]nc(N)c1NC(=O)c1ccc(Cl)cc1Cl
  -1.2, i
